RE007 growth inh – less growth of the S. pombe RE007 Vpr strain; S. pombe RE007 Vpr strain, BacTiter-Glo ATP luminescence, 24 h; control for the full effect not named in the record; Potency, µM (doses to about 92.2 µM), for inactives: top-dose activity change, negative = less growth; 360,000 tested, 0.21% active; AID 651644; active = well fitted falling curve with a large enough effect; inconclusive = small, poorly fitted or top-dose-only effect; inactive = no such curve, though single readings can be large or run the other way;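 also: nearly all actives have a fitted effect of over 50% in size; the assay follows cell death caused by Vpr and the record does not say whether a fall means rescue or toxicity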
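Fission yeast strain RE007, carrying one chromosomally integrated HIV-1 vpr copy, was seeded at OD 0.01 in PMG+AL medium with 23 nL pinned compound. After 24 h at 30 °C and 99% humidity, viability was read by BacTiter-Glo luminescence.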
StopGo reporter – FMDV 2A StopGo reporter, luciferase signal | AID 1159524 | 410,000 tested, 1.2% active | human cells with a luciferase reporter of 2A StopGo recoding; control for the full effect not named in the record | Potency, µM (titrated, usually from 57.9 µM), for the others: at the top dose signal change, negative = less light; active = well fitted falling curve with a large enough effect; inconclusive = small, poorly fitted or top-dose-only effect; inactive = no such curve, though single readings can be large or run the other way; tested in HEK293T cells; also: nearly all actives have a fitted effect of over 45% in size; luciferase light after 4 h
* = called active by the depositor; ? = inconclusive; [ ] = remark or other dose. % is scaled to controls: 0 for no effect and ±100 for the full control effect; potency is read from the fitted curve at half-maximal effect. The list is partial (hit frequency here may not be typical).

The line under a structure holds: RE007 growth inh	StopGo reporter
- CC(C)CC(CO)N1CCN(C(=O)c2cccc(Cl)c2)CCC1=O (stereo not drawn)
  22%	3%
- Clc1ccc2c(-c3ccccc3)nc(-c3cccs3)nc2c1
  6%	-20%
- O=C(C(=O)N1CCN(C(=O)c2ccco2)CC1)c1cc2ccccc2o1
  -4%	-13%
- CCOC(=O)c1sc(NC(=O)C2CCCCC2)nc1C
  -11%	21%
- Cc1cc(C)cc(-n2ncc3c2CCCC3NC(=O)CN2CCCCC2=O)c1 (stereo not drawn)
  -2%	-12%
- COC(=O)C[C@H]1c2cc(F)ccc2S(=O)(=O)N1c1ccccc1
  4%	33%[activator]
- CN(C)c1ccc(-c2[nH][nH]c(=O)c2NC(=O)c2ccc3ccccc3n2)cc1
  -9%	-10%
- COC(=O)Cn1nnnc1-c1nc2cc(C)c(C)cc2[nH]c1=O
  7%	-23%
- COC(=O)[C@]12CCCCC=C1N(Cc1ccc3c(c1)OCO3)C(=O)[C@H](CC(=O)N1CCC(c3ccccc3)CC1)C2
  0%	-12%
- Cc1cc(C(=O)COC(=O)Cc2c(F)cccc2Cl)c(C)n1C
  6%	0%
- Cn1c(=O)c2c(ncn2CCOC(=O)C(C)(C)Oc2ccc(Cl)cc2)n(C)c1=O
  -14%	-24%
- CCOC(=O)c1[nH]c(=S)n(-c2ccccc2)c1C(=O)OCC
  -4%	-24%
- COc1ccc(C(=O)Nc2ccccc2NC(=O)c2ccc(OC)cc2)cc1
  -3%	22%
- CCOc1ccc(Cc2c(O)nc(SC)[nH]c2=O)cc1
  11%	-24%
- O=C(c1[nH]c(C(F)(F)F)nc1-c1ccccc1)N1CCc2ccccc2C1
  5%	-1%
- COc1ccc(CNC(=O)Nc2nc(C(N)c3ccccc3)cs2)cc1 (stereo not drawn)
  1%[18.4 µM]	0%
- Cc1cc2nc(-c3ccc(F)cc3)c(CC3CCCCC3)n2c(C)c1Br
  -26%	-7%
- O=C(Cc1cccc(NC(=O)C2CCN(C(=O)c3ccccc3)CC2)c1)Nc1cccc(C(=O)N2CCOCC2)c1
  2%	-8%
- COc1ccc(CC(N)c2csc(Nc3cc(NCc4ccco4)ncn3)n2)cc1 (stereo not drawn)
  -4%	-30%
- Cc1ccc(S(=O)(=O)NCc2ccccc2)cc1C(=O)NCc1ccncc1
  7%	36%[activator]
- CSc1nc(=O)[nH]nc1Sc1ccccc1
  22%	-22%
- COc1ccc(C(C)(C)C)cc1NC(=O)CN(C)C1=NS(=O)(=O)c2ccccc21
  1%	?
- O=C(NCc1ccncc1)Nc1ccc(Cc2ccc(NC(=O)NCc3ccncc3)cc2)cc1
  -5%	-2%
- Cn1c(=O)c2c(ncn2CC(=O)OCC(=O)c2ccc(Br)cc2)n(C)c1=O
  -20%	-29%
- C=CC[C@]12C[C@@H](OC)C(=O)C=C1O[C@@H](c1ccc(OC)c(OC)c1)[C@H]2C
  -2%	-28%
- Cc1cc(C)cc(SCc2noc(C(=O)NCCN(C)C)c2C(=O)NCCN(C)C)c1
  -6%	-8%
- CCC(=O)N1CCC1(C)C(=O)Nc1ccc(C)c(C)c1 (stereo not drawn)
  7%[18.4 µM]	-8%
- COCCNC(=O)C1(C)CCCN(C(=O)c2cc(F)cc(F)c2)C1 (stereo not drawn)
  12%	-7%
- Cc1ccccc1CN1C[C@H]2CON(C)[C@H]2C[C@H]1c1cccc(Br)c1
  -5%	?
- Cc1ccc(C(=O)N(CCc2ccccc2)Cc2ccccc2)cc1S(=O)(=O)N1CCOCC1
  -8%	9%
- Cc1c(NC(=O)CSc2nnc(-c3ccncc3)n2C)c(=O)n(-c2ccccc2)n1C
  -14%	-12%
- C[C@@H]1CCCCO[C@H](CN(C)Cc2ccc(C(=O)O)cc2)[C@@H](C)CN([C@H](C)CO)C(=O)c2cc(NC(=O)CCC(F)(F)F)ccc2O1
  -3%	-18%
- Cc1ccc(Cc2c(C(C)(C)C)nc3ccc(Br)cn23)cc1
  -20%	3%
- CC(=O)N(CC#CCN(C(C)=O)c1ccccc1)c1ccccc1
  -7%	-14%
- O=c1[nH]c2ccccc2cc1-c1nnn(-c2ccccc2)n1
  12%	2%
- Cc1cccc(C)c1NC(=O)CN(c1c(C)cccc1C)S(C)(=O)=O
  -16%	5%
- COc1ccc(Br)c(Cn2c(C)c(C(=O)NCc3cccs3)sc2=O)c1
  1%[18.4 µM]	0%
- CCCCc1ccc(S(=O)(=O)NC(=O)C2(C)CCN2C(=O)c2c(C)noc2C)cc1 (stereo not drawn)
  12%	6%
- N[C@@H](Cc1cnc[nH]1)C(=O)Nc1ccc2ccccc2c1
  -10%	-14%
- COc1ccccc1-c1cccc(-c2nc(C(=O)N3CCCCC3)cc3c2[C@@H](CCO)N(S(=O)C(C)(C)C)C3)c1 (stereo partly drawn)
  0%	?
- Cc1ccccc1-c1cnc(C(O)c2cccc(C)c2C)[nH]1 (stereo not drawn)
  -14%[18.4 µM]	21%
- O=C(NCc1cc(Cl)cc(Cl)c1)c1csc([C@@H]2C[C@H](O)[C@@H](CO)O2)n1
  12%	-8%
- Nc1nc(Nc2ccc(Cl)cc2)c(NC=O)c(=O)[nH]1
  3%	-24%
- COc1ccc(NC(=S)Nc2ccc3c(c2)c(=O)n(C)n3-c2ccccc2)cc1
  -10%	10%
- C[C@H]1CN([C@@H](C)CO)S(=O)(=O)c2ccc(Br)cc2O[C@@H]1CN(C)Cc1cccc(F)c1
  -11%	-5%
- OC[C@@H]1CN(Cc2ccc(Cl)cc2)C[C@H](n2cnc3c(Nc4ccccc4)ncnc32)O1
  10%	-13%
- N#Cc1cccc(NC(=O)c2cc(C3CCCCN3C(=O)C3CC3)on2)c1 (stereo not drawn)
  14%	?
- OC[C@@H]1CN(Cc2ccccc2)C[C@H](n2cnc3c(NC4CCCC4)ncnc32)O1
  7%[18.4 µM]	-6%
- COc1ccc(/C=C/C(=O)OCC(=O)N2c3ccccc3CC2C)cc1OC (stereo not drawn)
  -5%	-21%
- CCC/C=C/c1ccc(CN2C(C)C(=O)N(Cc3cn(Cc4ccco4)nn3)CCS2(=O)=O)cc1 (stereo not drawn)
  0%	-7%
- O=C(Nc1ccccc1F)c1csc([C@@H]2C[C@H](O)[C@@H](CO)O2)n1
  -9%[18.4 µM]	5%
- CC(C)[C@H](NC(=O)c1c(F)cccc1F)C(=O)OCC(=O)NNC(=O)c1ccccc1
  -15%	-9%
- C[C@H]1CN([C@@H](C)CO)C(=O)CCCn2nncc2CO[C@@H]1CN(C)Cc1cccc(C(=O)O)c1
  8%	-11%
- CCCN(CCC)Cc1cc(=O)oc2cc(C)cc(C)c12
  -15%	-16%
- CC1(Cc2ccccc2Cl)C(=O)Nc2c(Cl)ccc(Cl)c21 (stereo not drawn)
  -3%	?
- CCC(C)C(=O)C(=O)N1CCC(n2nccc2NC(=O)CCOc2ccccc2)CC1 (stereo not drawn)
  0%	15%
- C=CC[C@@H](CC(=O)N(CCO)Cc1ccccc1)C(=O)N[C@H](COC(=O)[C@@H](CC=C)CC(=O)OC(C)(C)C)Cc1ccccc1
  1%	?
- COc1ccc(CC(=O)Nc2nc(OCCN3CCCC3=O)cnc2-c2cccc(C(F)(F)F)c2)cc1
  -3%	-13%
- O=C(NCc1ccccc1)c1cc(C2CCCN(C(=O)CCc3ccccc3)C2)on1 (stereo not drawn)
  10%[18.4 µM]	10%
- S=C(NCCc1ccccc1)N1CCC2CC1c1c(Cl)cccc12 (stereo not drawn)
  17%	14%

Next part
The line under a structure holds: RE007 growth inh	StopGo reporter
- CN(Cc1ccccc1)c1nccn2ccnc12
  -1%	-1%
- CNC(=O)C[C@H]1C(=O)N(c2ccccc2)C[C@@H]1Cc1ccccc1
  -15%	-14%
- CCN1C[C@]2(COC)CC[C@H](OC)[C@@]34C1[C@]1(OCO[C@@]15C[C@H](OC)[C@H]1C[C@@H]3[C@@H]5[C@H]1OC)[C@@H](O)[C@H]24
  3%[18.4 µM]	-11%
- COc1cc(NC(=O)C2(C)CCCN(C(C)C)C2)cc(OC)c1OC (stereo not drawn)
  19%	-13%
- O=C(NC1CCCc2c1cnn2-c1ccccc1F)c1ccncc1 (stereo not drawn)
  -2%	?
- COc1ccc(Cc2c(-c3ccc(OC)c(OC)c3)nc3ccc(C)cn23)c(C)c1
  ?	-3%
- COc1ccc(CNC(=O)O[C@H]2C[C@@H]3C(=O)N(c4ccccc4)C(=O)[C@@H]3[C@@H]3CN(S(=O)(=O)c4ccc(C)cc4)C[C@]23O)cc1OC
  -5%	0%
- Cc1ccc(S(=O)(=O)Nc2ccccc2[N+](=O)[O-])cc1
  -10%	-6%
- CCCCC(=O)N(C)c1c(CC)nc2c(OCC(N)=O)cccn12
  1%	7%
- CC(C)NC(=O)C1(C)CSCC(=O)N1C1CCN(Cc2ccccc2)CC1 (stereo not drawn)
  -11%	-12%
- COCCCNC(=O)c1cccc2c(-c3ccc(OC)cc3C)coc12
  10%	?
- CC(=O)c1ccc(OCc2cn(CC(=O)c3ccc(O)cc3)nn2)c(C)c1
  5%	-8%
- CC(=O)Nc1ccc(NC(=O)C2(C)Cc3c(-c4cccc(C(F)(F)F)c4)ccnc3O2)cc1 (stereo not drawn)
  11%	?
- Cc1cc(C)n(CCNC(=O)[C@H]2O[C@@H](n3cnc4c(N)ncnc43)[C@H](O)[C@@H]2O)n1
  16%	0%
- O=c1cc(CN2CCN(c3ccc(Cl)c(Cl)c3)CC2)c2ccccc2o1
  8%	?
- CC(=O)c1cccc(-c2ccnc3c2CC(C(=O)NCc2ccco2)O3)c1 (stereo not drawn)
  5%	-10%
- O=C(NCCN1CCC(n2c(=O)[nH]c3ccccc32)CC1)N1c2ccccc2Sc2ccccc21
  ?	-5%

High-throughput results (PubChem BioAssay)
